High-throughput results as filed in PubChem BioAssay.
Ecoli rRNA inh – inhibitors of bacterial rRNA selective over humanized ribosomes; E. coli WT GFP vs humanized-ribosome RFP mutants, fluorescence, 24 h; stronger effect = lower value; DMSO median 0, no signal -100; GFP signal change (wild-type ribosome), % (no concentration beside the values); actives 1.6% (n = 350,000); AID 720706;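 active = significant combined selectivity score with lowered wild-type GFP, culture density cut under 30%, mutant RFP and density less affected; inactive = any of these conditions unmet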; note: one replicate is shown; some compounds called inactive have numbers as strong as hits
E coli growth – E. coli growth inhibition; Escherichia coli growth, OD600, 23 h; stronger effect = lower value; OD600 absorbance (test concentration not listed); AID 1053175; actives 0.21% (n = 330,000);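 active = OD600 absorbance below the run mean of sample wells minus 3.6 SD, in any replicate, cut at about 0.56 in these data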;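 note: stock transfer was 300 nL into about 60 µL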
ALR H2O2 inh – human ALR oxidase inhibition via reduced H2O2. P55789. purified ALR, DTT oxidation, H2O2 HRP-luminol luminescence. inhibition, % (concentration not given with the values). actives 3.8% (n = 290,000). AID 485317;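 active = mean and each replicate at 75% or more; inconclusive = only one of the two met; inactive = neither met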;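 note: stock transfer was 7.5 nL into about 7.5 µL; 0% = neutral wells and 100% = wells with inactivated enzyme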
Target sequence (P55789 whole entry, looked up): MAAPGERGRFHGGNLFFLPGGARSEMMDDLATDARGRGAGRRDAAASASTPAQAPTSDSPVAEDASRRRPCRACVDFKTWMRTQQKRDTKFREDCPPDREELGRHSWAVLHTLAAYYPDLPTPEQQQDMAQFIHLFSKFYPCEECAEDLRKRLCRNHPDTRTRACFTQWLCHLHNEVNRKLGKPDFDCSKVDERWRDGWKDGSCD
MLL AF4-AF9 inh – MLL-AF4/AF9 protein interaction inhibition. P42568. AlphaScreen, biotin-AF4 peptide binding to FLAG-AF9. inhibition, % at 10 µM. actives 0.47% (n = 350,000). AID 651704;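 active = every replicate reaching a set inhibition limit, whatever the replicate mean, cut at about 25% in these data; inconclusive = mean inhibition reaches that limit but some replicates miss it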;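 note: 0% = plate neutral control median and 100% = total signal loss; the record names both 10 and 1 µM as test concentration; the first replicate is given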
Target sequence (P42568 whole entry, looked up): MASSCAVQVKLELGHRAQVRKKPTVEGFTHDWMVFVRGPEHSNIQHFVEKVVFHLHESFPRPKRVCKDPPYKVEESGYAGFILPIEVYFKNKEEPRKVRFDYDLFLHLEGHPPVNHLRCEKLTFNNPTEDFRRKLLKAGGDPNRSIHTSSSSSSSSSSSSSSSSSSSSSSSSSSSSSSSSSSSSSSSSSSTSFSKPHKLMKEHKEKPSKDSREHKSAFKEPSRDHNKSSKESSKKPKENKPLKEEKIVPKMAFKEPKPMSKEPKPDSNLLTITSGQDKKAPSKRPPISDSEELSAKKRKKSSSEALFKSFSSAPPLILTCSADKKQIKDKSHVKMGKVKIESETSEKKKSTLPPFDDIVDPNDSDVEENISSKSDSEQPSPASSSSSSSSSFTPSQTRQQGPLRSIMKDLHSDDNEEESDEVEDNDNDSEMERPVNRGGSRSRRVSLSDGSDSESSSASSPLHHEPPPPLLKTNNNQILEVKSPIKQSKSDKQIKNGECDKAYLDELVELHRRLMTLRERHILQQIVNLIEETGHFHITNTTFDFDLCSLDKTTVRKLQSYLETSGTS
FGF22 binding – FGF22 (human) thermal shift binding. Q9HCT0. recombinant FGF22 thermal shift, SYPRO orange fluorescence; percent of sucrose octasulfate shift, DMSO zero. calls only at 9.99 µM. actives 1.5% (n = 340,000);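 active = melting point raised past a set limit in the mean and every replicate; inconclusive = no clear call; three in four hits are not shown here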
Target sequence (Q9HCT0 whole entry, looked up): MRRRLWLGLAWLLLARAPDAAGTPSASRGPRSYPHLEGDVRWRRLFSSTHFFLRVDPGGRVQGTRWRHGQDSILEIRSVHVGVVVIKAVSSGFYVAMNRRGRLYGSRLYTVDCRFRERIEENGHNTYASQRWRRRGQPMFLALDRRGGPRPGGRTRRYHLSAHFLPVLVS
Vif TR-FRET – HIV-1 Vif–A3G interaction blockers – biochemical, TR-FRET, GST-Vif 1-94, biotin-A3G peptide, dose response retest, primary screen (AID 1117319); TR-FRET GST-Vif / biotin-A3G peptide binding; higher % means a stronger effect; test concentration not given here; strong numbers were not always called active; one-dose inhibition, %; IC50 in µM for titrated hits; actives 0.57% (n = 260,000);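 active = above the screen mean plus three standard deviations and confirmed in dose response; inconclusive = results disagree or hit not tested in dose response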;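 note: Vif residues 1-94 fused to GST binding biotinylated APOBEC3G peptide 110-148; 0% = full assay without inhibitor and 100% = GST in place of GST-Vif; retest series ran down from 100 µM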
HNF4A DNA FP – change in binding of human HNF4 alpha to DNA; P41235; activity change, % at 10 µM; actives 0.3% (n = 360,000); HNF4a-FITC DNA binding, fluorescence polarization, 1 h; in the data active = activity change above about 30%, passing the limit was not always enough;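 note: controls were the assay level and a saturating level of protein; the project sought stronger binding though the title names inhibitors; some compounds called inactive have numbers as strong as hits; positive values seem to mean higher polarization but the record does not say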
Ecoli rRNA inh OD600 – second read-out of Ecoli rRNA inh, no call of its own (marks repeat the call); OD600 change, %; measured here: OD600 growth;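 optical density of the mix in the first replicate; 0 = DMSO median and -100 = no signal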
Ecoli rRNA inh RFP – recorded beside Ecoli rRNA inh, whose call it bears; RFP signal change, %; measured here: RFP humanized mutant strains;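 first replicate; 0 = DMSO median and -100 = no signal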
The depositor's hits bear a star; i = inactive; ? = inconclusive; · = not tested or not shown; & = joins results of further samples. The list is partial. The share of hits here may be higher or lower than overall.

Under each structure: HNF4A DNA FP	Ecoli rRNA inh RFP	ALR H2O2 inh	Vif TR-FRET	Ecoli rRNA inh OD600	FGF22 binding	E coli growth	MLL AF4-AF9 inh	Ecoli rRNA inh
(1) Cc1cc(N2CCCC2)nc2ccc(NC(=S)NC(C)C)cc12
→ 5.1	·	43	·	·	i	0.72	6.8	·
(2) CCOC(=O)c1c(C)[nH]c(C2=NNC(=NC3CC3)SC2)c1C
→ -1.2	·	98*	8%	·	·	0.66	·	·
(3) Cn1cnc(S(=O)(=O)N[C@@H]2CC[C@H](CC(=O)Nc3ccccc3)O[C@H]2CO)c1
→ ·	0.1	·	·	8	i	·	-1.2	-2
(4) CCCn1c(SC(C)C(=O)NCC2CCCO2)nc2sc3c(c2c1=O)CCC3 (centres undefined)
→ 1.6	0.5	-8	7%	-12	i	0.75	-0.3	-7
(5) Cc1ccc(C(=O)OCC(=O)Nc2ccc3[nH]c(=O)[nH]c3c2)cc1[N+](=O)[O-]
→ -1.6	-1.1	-4	5%	-5	i	0.68	-7.0	-2
(6) CCOC(=O)c1cnc2cc(-c3ccc(C(C)(C)C)cc3)nn2c1N
→ -5.1	·	40	-5%	·	·	0.8	·	·
(7) CCOC(=O)C1CCCN(c2c(N3CCN(c4cccc(Cl)c4)CC3)c(=O)c2=O)C1 (centres undefined)
→ -1.3	-1.1	·	?	5	i	0.71	-2.7	3
(8) CCOc1ccc(-c2cccc(NS(=O)(=O)c3cccc([N+](=O)[O-])c3)c2)nn1
→ 2.2	5.7	·	·	-8	i	·	3.3	-9
(9) COc1ccc(OCC(=O)NNC(=S)NC(=O)c2ccc([N+](=O)[O-])cc2)cc1
→ 1.9	0.3	·	·	-5	i	0.67	-0.4	-6
(10) O=C(c1cncc(Br)c1)N1CCN(S(=O)(=O)c2ccc3ccccc3c2)CC1
→ 6.9	·	-24	·	·	i	0.7	0.9	·
(11) Cc1ccnc(NC(=O)c2cc(-n3cnnc3)ccc2Cl)c1
→ 0.0	·	-1	-1%	·	·	0.73	·	·
(12) Nc1sccc1C(=O)N1CCN(c2ccccc2)CC1
→ 13	3.9	·	·	5	i	·	-16	5
(13) C[C@@H]1CCCCO[C@H](CN(C)S(=O)(=O)c2cccs2)[C@H](C)CN([C@H](C)CO)C(=O)c2cc(NC(=O)Nc3ccc(F)cc3)ccc2O1
→ ·	4.9	·	·	0	i	·	-1.8	7
(14) CC(=O)Nc1ccc(NC(=O)CN(c2cc(Cl)ccc2Cl)S(C)(=O)=O)cc1
→ 2.8	0.7	·	-5%	7	i	0.69	0.2	10
(15) COc1ccc(CNC(=O)C2CSCCS2)cc1 (centres undefined)
→ 5.2	·	6	15%	·	·	0.74	·	·
(16) O=C(COC(=O)/C=C/c1ccccc1[N+](=O)[O-])NCC(F)(F)F
→ -0.3	0.1	-25	·	13	i	0.68	-2.3	19
(17) Cc1ccc(C2Nc3ccccc3C(=O)N2CCCN2CCOCC2)cc1 (centres undefined)
→ 1.9	2.5	18	·	2	i	0.67	2.1	14
(18) O=C(NCC(=O)N1CC(O)CC1C(=O)N1CC(O)CC1C(=O)OCc1ccccc1)OCc1ccccc1 (centres undefined)
→ 2.2	1.2	-6	-3%	8	i	0.68	-0.7	16
(19) O=C1N(c2ccccc2C(F)(F)F)O[C@]1(c1ccccc1)C1CCCCC1
→ 1.7	6.6	4	·	1	i	0.65	-47	11
(20) Cc1cccc(S(=O)(=O)N2CCCCN3[C@H](CO)[C@@H](c4ccc(C#C[C@@H](C)O)cc4)[C@H]3C2)c1
→ ·	0.0	·	·	6	i	·	1.8	0
(21) COc1ccc(C(C(=O)Nc2ccc(F)cc2)N2CCN(c3cccc(C(F)(F)F)n3)CC2)cc1 (centres undefined)
→ -2.5	0.6	·	·	-3	i	·	1.1	11
(22) O=[N+]([O-])c1ccc(NCCCO)c(S(=O)(=O)N2CCOCC2)c1
→ 5.7	-0.1	4	0%	1	i	0.7	2.4	9
(23) c1ccc(COC2COC3C(OCc4ccccc4)COC23)cc1 (centres undefined)
→ 0.4	2.1	·	-9%	-9	i	0.68	1.4	-8
(24) OC(COCc1ccc2c(c1)OCO2)CN1CCCCC1 (centres undefined)
→ -5.7	-9.1	-6	19%	1	i	0.63	-1.0	11
(25) O=c1[nH]cc(COCC(F)CCl)c(=O)[nH]1 (centres undefined)
→ 3.3	-2.4	-1	·	-2	i	0.71	-4.3	6
(26) CCC(c1nnnn1CCc1ccccc1)N1CCN(C(=O)c2ccco2)CC1 (centres undefined)
→ 2.0	-0.2	4	-2%	-1	·	0.69	·	9
(27) COc1cccc(-c2c(C(=O)N/N=C/c3ccco3)nnn2-c2nonc2N)c1
→ -5.1	3.0	-32	·	5	i	·	0.2	-3
(28) O=C(O)c1ccc([N+](=O)[O-])c2c1C(=O)c1ccccc1C2=O
→ 2.0	65	-17	·	17	i	0.7	-2.6	16
(29) Cc1cc(C)c(C)c(S(=O)(=O)N2CCN(C(=O)c3ccncc3)CC2)c1C
→ 4.2	-2.5	1	-2%	3	i	0.69	-5.3	3
(30) Cc1ccc(NC(=O)CN(C)C(=O)c2cccc(S(=O)(=O)NCc3ccccc3)c2)cc1
→ -1.8	-2.6	-9	-7%	4	i	0.65	-4.4	3
(31) CCc1ccc(NC(=O)c2n[nH]c(=O)c3ccccc23)cc1
→ 3.0	-0.5	·	-5%	-8	i	0.71	-0.7	6
(32) CC(C)(C)N(Cc1ccccc1)C(=O)COC(=O)[C@@H]1CCCN1C(=O)c1cccs1
→ 2.9	0.1	3	0%	2	i	0.65	0.6	3
(33) C[C@@H]1CN([C@@H](C)CO)S(=O)(=O)c2ccc(C#CC3CC3)cc2O[C@@H]1CN(C)Cc1cccc(F)c1
→ ·	-0.2	·	·	-16	i	·	2.8	-5
(34) CC(=O)N(C)C[C@H]1Oc2cc(C3=CCCC3)ccc2S(=O)(=O)N([C@H](C)CO)C[C@@H]1C
→ ·	-2.4	·	·	-3	i	·	-2.2	0
(35) CCNC(=O)CN(Cc1ccccc1)S(=O)(=O)c1ccccc1
→ -0.1	2.3	0	-6%	5	i	0.64	-6.2	5
(36) C[C@@H]1CN([C@@H](C)CO)C(=O)c2cc(NC(=O)Nc3ccc(C(F)(F)F)cc3)ccc2O[C@H]1CN(C)Cc1ccc(C(F)(F)F)cc1
→ ·	-1.5	·	·	6	i	·	-1.2	0
(37) COc1ccc(NC(=O)N(C)C[C@H]2OCCCC[C@@H](C)Oc3ccc(NC(=O)c4ccccc4)cc3C(=O)N([C@H](C)CO)C[C@H]2C)cc1
→ ·	0.6	·	·	1	i	·	2.7	0
(38) Cc1ccc(-c2nn(CCC(N)=O)c(=O)c3ccccc23)cc1
→ -1.2	-0.2	-4	-2%	3	·	0.7	·	4
(39) CN(C)S(=O)(=O)c1ccc(C(=O)NCC2CC2(Cl)Cl)cc1 (centres undefined)
→ 1.6	-3.4	1	·	11	i	0.6	-1.2	-1
(40) Cc1ccc(C(=O)CCC(=O)Nc2ccccc2F)cc1
→ -1.4	-14	-1	·	-6	i	0.71	-4.8	-7

Full records, quoted from the list. Screens in order: HNF4A DNA FP, Ecoli rRNA inh RFP, ALR H2O2 inh, Vif TR-FRET, Ecoli rRNA inh OD600, FGF22 binding, E coli growth, MLL AF4-AF9 inh, Ecoli rRNA inh
Record of O=[N+]([O-])c1ccc(NCCCO)c(S(=O)(=O)N2CCOCC2)c1 = 5.7, -0.1, 4, 0%, 1, i, 0.7, 2.4, 9
Record of O=c1[nH]cc(COCC(F)CCl)c(=O)[nH]1 (centres undefined) = 3.3, -2.4, -1, ·, -2, i, 0.71, -4.3, 6
Record of CCNC(=O)CN(Cc1ccccc1)S(=O)(=O)c1ccccc1 = -0.1, 2.3, 0, -6%, 5, i, 0.64, -6.2, 5
Record of CCc1ccc(NC(=O)c2n[nH]c(=O)c3ccccc23)cc1 = 3.0, -0.5, ·, -5%, -8, i, 0.71, -0.7, 6

Next section
Under each structure: HNF4A DNA FP	Ecoli rRNA inh RFP	ALR H2O2 inh	Vif TR-FRET	Ecoli rRNA inh OD600	FGF22 binding	E coli growth	MLL AF4-AF9 inh	Ecoli rRNA inh
(41) C[C@@H]1CN([C@H](C)CO)C(=O)c2cc(Br)cnc2O[C@H]1CN(C)C(=O)Cc1ccncc1
→ 1.6	-0.3&-4.1	·	11%	11&-2	i	·	0.9&-17	3&4
(42) COc1c(Cl)cc(-c2noc(C)c2C(=O)NCc2ccc3c(c2)OCO3)cc1Cl
→ 2.0	-4.5	-38	10%	-11	i	0.79	9.6	-16
(43) O=C(C[C@H]1C[C@@H]2c3cc(NS(=O)(=O)c4ccccc4)ccc3O[C@@H]2[C@@H](CO)O1)NC1CCCC1
→ ·	-3.2	·	·	-8	i	·	1.3	0
(44) COc1cccc(/C=N/n2c(-c3ccco3)nc3ccccc3c2=O)c1
→ -0.2	·	-1	18%	·	·	·	·	·
(45) CC1(C)NC(=O)N(CCC(=O)Nc2ccc(C(C)(C)C)cc2)C1=O
→ -5.1	-1.3	·	4%	3	i	·	-0.6	1
(46) O=C(COC(=O)C1CCN(S(=O)(=O)c2cccs2)CC1)Nc1ccccc1
→ -3.0	-4.8	-5	-3%	-21	i	0.71	-2.9	-15
(47) CCCNC(=O)C[C@@H]1CC[C@@H]2[C@H](COc3ccc(NC(=O)C4CCOCC4)cc3C(=O)N2C)O1
→ ·	-1.8	·	·	7	i	·	-0.1	4
(48) CCN(CC)C(=O)COC(=O)c1ccc(C)c(NC(=O)c2ccco2)c1
→ 0.6	-1.3	1	9%	3	i	0.7	-6.2	-3
(49) O=C(NCCCN1CCOCC1)c1cccc(S(=O)(=O)N2CCc3ccccc3C2)c1
→ -0.1	-0.2	-3	·	-1	i	0.69	-0.8	10
(50) Cc1cc(C#N)c2ccccc2n1
→ 0.8	·	2	70%	·	·	0.67	·	·
(51) C[C@H](CO)N1C[C@H](C)[C@@H](CN(C)CC2CCCC2)Oc2cc(C3=CCCC3)ccc2S1(=O)=O
→ ·	21	·	·	-21	i	·	4.4	-12
(52) CCN1C/C(=C/c2ccc(OC)c(O)c2)C(=O)/C(=C/c2ccc(OC)c(O)c2)C1
→ -0.8	2.8	98*	1%	6	i	0.66	0.4	18
(53) Cc1ccc(C)c(N2CCN(C(=O)c3cccn4c(=O)c5sccc5nc34)CC2)c1
→ -0.6	-2.3	-8	·	-6	i	0.69	3.5	-14
(54) COc1ccc(C2C(C(=O)c3ccccc3)N3c4ccccc4C=CC3C2[N+](=O)[O-])cc1 (centres undefined)
→ 113	3.0	·	8%	-19	i	0.72	9.7	-18
(55) COc1cccc(N(C(=O)c2ccco2)C(C(=O)NC2CCCC2)c2cccnc2)c1 (centres undefined)
→ 3.7	·	-7	-2%	·	·	0.72	·	·
(56) COCC(=O)Nc1ccc2c(c1)C(=O)N(C)C[C@@H](OC)[C@H](C)CN(C(=O)Nc1ccccc1F)[C@H](C)CO2
→ ·	1.4	·	·	-3	i	·	-7.3	-2
(57) O=C(Cn1nnc(-c2ccc(CN3CCOCC3)cc2)n1)Nc1nc(-c2ccccc2)cs1
→ 2.9	·	-14	-3%	·	·	0.68	·	·
(58) CSc1ccc(C(O)c2ncc(-c3ccccc3Cl)[nH]2)cc1 (centres undefined)
→ -1.5	-18	·	·	-75	i	·	-0.6	-49
(59) CC(=O)Nc1ccc(SCC(=O)NCCc2ccc(F)cc2)cc1
→ -2.8	-2.6	?	·	5	i	0.65	4.1	2
(60) O=C(CC1C(=O)NCCN1C(=O)Nc1ccccc1)Nc1ccc(F)cc1 (centres undefined)
→ 1.1	·	-10	1%	·	i	0.69	2.3	·
